# Menin MLL FP FL = qHTS Assay for Inhibitors Targeting the Menin-MLL Interaction in MLL Related Leukemias: Competition With Fluorescein Labeled MLL-derived Peptide; 290,000 tested, under 10 active; Fluorescence polarization, fluorescein-MLL peptide displacement from menin; FP activity change, % at 61.4 µM; inconclusive = falling polarisation curve, or a change in total fluorescence; inactive = total fluorescence flat and polarisation flat or rising; no compound was filed as active; the % refers to the polarisation; negative = inhibition;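 further: % of control where 0% means no effect; inhibitors lower the polarisation; unlabelled MLL peptide was the positive control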
# Sfp PPTase inh = qHTS Assay for Inhibitors of Bacillus subtilis Sfp phosphopantetheinyl transferase (PPTase). 4'-phosphopantetheinyl transferase ffp (Bacillus subtilis), Q9F4F7. Biochemical Sfp PPTase activity, qHTS. Potency, µM, inactives show max response, negative = inhibition, actives largely listed as inhibitors. 310,000 compounds, 3.5% hits. AID 1490, 2009; active means well fitted inhibition curve with a large enough effect; inconclusive means small, poorly fitted or top-dose-only effect, or another doubt; inactive means no such curve, though single readings can be large or run the other way;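 further: the enzyme is Sfp with the accession as filed and its product quenches rhodamine fluorescence; potency means the concentration at half of the fitted maximal effect; 0% = enzyme reaction without inhibitor and -100% = no enzyme wells; top concentration of the series not given in the record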
#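 Sfp 15 nM + cpd, 15 min RT; start w/ rhodamine-CoA 5 uM, BHQ-2-YbbR 12.5 uM (final); 50 mM Hepes pH 7.6, 10 mM MgCl2, 0.01% NP-40, 0.01% BSA; read 525/598 nm at 0 and 30 min.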
# Numbers without * were called inactive; ? = inconclusive; & = joins results of further samples; [ ] = remark or other dose.
SMILES,Menin MLL FP FL,Sfp PPTase inh
CC[C@H](C)[C@H](NC(=O)[C@H](Cc1ccc(O)cc1)NC(=O)[C@H](Cc1cnc[nH]1)NC(=O)[C@H](CCCNC(=N)N)NC(=O)[C@H](CC(C)C)NC(=O)[C@H](C)NC(=O)[C@H](CO)NC(=O)[C@H](Cc1ccc(O)cc1)NC(=O)[C@H](Cc1ccc(O)cc1)NC(=O)[C@H](CCCNC(=N)N)NC(=O)[C@H](C)NC(=O)[C@H](CCSC)NC(=O)[C@H](CC(=O)O)NC(=O)[C@H](CCC(=O)O)NC(=O)[C@H](C)NC(=O)[C@@H]1CCCN1)C(=O)N[C@@H](CC(N)=O)C(=O)N[C@@H](CC(C)C)C(=O)N[C@H](C(=O)N[C@H](C(=O)N[C@@H](CCCNC(=N)N)C(=O)N[C@@H](CCC(N)=O)C(=O)N[C@@H](CCCNC(=N)N)C(=O)N[C@@H](Cc1ccc(O)cc1)C(N)=O)[C@@H](C)O)[C@@H](C)CC,1.3,?
CCN(CC)CCN1C(=O)C(=O)/C(=C(/O)c2ccc(OCC(C)C)cc2)C1c1ccncc1 (stereo not given),-1.1,10%
CSCC[C@H](N)C(=O)N[C@@H](CCC(=O)O)C(=O)N[C@H](C(=O)NCC(=O)N[C@@H](Cc1c[nH]c2ccccc12)C(=O)N[C@@H](Cc1ccc(O)cc1)C(=O)N[C@@H](CCCNC(=N)N)C(=O)N[C@@H](CO)C(=O)N1CCC[C@H]1C(=O)N[C@@H](Cc1ccccc1)C(=O)N[C@@H](CO)C(=O)N[C@@H](CCCNC(=N)N)C(=O)N[C@H](C(=O)N[C@H](C(=O)N[C@@H](Cc1cnc[nH]1)C(=O)N[C@@H](CC(C)C)C(=O)N[C@@H](Cc1ccc(O)cc1)C(=O)N[C@@H](CCCNC(=N)N)C(=O)N[C@@H](CC(N)=O)C(=O)NCC(=O)N[C@@H](CCCCN)C(=O)O)C(C)C)C(C)C)C(C)C,-1.1,13%
COC(=O)C1(C)C=CC2(CCCCC2)N1C(=O)c1ccccc1 (stereo not given),-3.2,16%
Cn1c(C(C#N)C2=C(Cl)C(=O)N(c3ccccc3)C2=O)nc2ccccc21 (stereo not given),4.6,?
CC(=O)[C@@H]1[C@H]2[C@H](C(=O)[C@H]3OC[C@@H]2O3)[C@H]2C=Cc3ccccc3N21,?,45µM*
Nc1nc(-c2cccnc2)nn1C(=O)c1ccco1,3.6,3%
CCN1C(=O)[C@H]2[C@H]3[C@H](O)[C@H](O)C/C(=N/NC(=O)OCc4ccccc4)[C@@H]3CC[C@@H]2C1=O,2.2[11.7 µM],6%
COC(=O)[C@H](Cc1ccccc1)NC(=O)O[C@H]1C(=O)c2cc(OC)ccc2O[C@@H]1c1ccc(OC)c(Br)c1,?,-5%&-10%
CC[C@@H]1C(c2cccc(Cl)c2)=NN(c2ccccc2)[C@H]1C(=O)N1CCOC1=O,23,13%
CC(=O)OCC(NC(=O)C(COCc1ccccc1)NC(=O)OC(C)(C)C)C1OC(n2cc(C)c(=O)[nH]c2=O)C(OC(C)=O)C1OC(C)=O (stereo not given),-1.3,21%
COC(=O)[C@@]1(Cc2ccc(OC)cc2)[C@H]2c3cc(C(=O)N4CCCC4)n(CCc4c[nH]c5ccc(OC)cc45)c3C[C@H]2CN1C(=O)c1ccccc1,0.7,8%
O=c1cc(-c2ccccc2O)oc2ccc3ccccc3c12,?,5%
CC(C)(C)OC(=O)NCCCC1=CC2=CC(=O)C(C)(OC(=O)C3CCCC3)C(=O)C2=CO1 (stereo not given),4.9,-11%
CC(=O)c1ccc(C2C=CC(Oc3ccc(-c4ccccc4)cc3)C(CO)O2)cc1 (stereo not given),-1.4[11.7 µM],0%
CCn1c(SCC(=O)Nc2nc3c(s2)CCCC3)nc2c1c(=O)n(C)c(=O)n2C,-0.1,20%
Cc1ccc(NC(=S)NC(=O)c2sc3ccccc3c2Cl)c(C(=O)O)c1,39[activator],16µM*
CCOC(=O)C1=NN(C(=O)c2cccc(Br)c2)C(O)(C(C)(C)C)C1 (stereo not given),4.2,12%
O=C(Sc1cccc2cccnc12)c1ccc(F)cc1,-1.3,?
CC1COC(=O)O1 (stereo not given),3.3,0%
FC(F)(F)c1cccc(NC(=S)NNC(=S)Nc2cccc(C(F)(F)F)c2)c1,-0.8,25µM*
CC#CCOCC/C=C1/c2ccccc2C(OC)C1C (stereo not given),-4.3[11.7 µM],12%
Cc1ccc2[nH]c(C)cc(=O)c2c1,-0.1[138 µM],-2%
CCOC(=O)N1CCC(N(CCN(C)C)C(=S)Nc2ccc(OCC)cc2)CC1,-0.2,?
CC1(OC(=O)C2CCCC2)C(=O)C=C2C=C(C3CC3)OC=C2C1=O (stereo not given),?,-9%
SMILES,Menin MLL FP FL,Sfp PPTase inh
Cn1cc(C(=O)NCc2cccnc2)c(=O)c2cc(S(=O)(=O)N3CCCCCC3)ccc21,-3.3,19%
C#C[C@]1(O)CC[C@H]2[C@@H]3CCC4=CCCC[C@@H]4[C@H]3C(=C)C[C@@]21CC,-2.6,5%
CCOc1ccc(NC(=O)CC)cc1,4.3,13%
FC(F)(F)COCC(F)(F)F,3.5,22%
Cc1cccc2cc(/C=N/NC(=O)CN3CCCCC3)c(Cl)nc12,-0.2,12%
O=C1CSC(=S)N1/N=C/c1cc(Br)ccc1O,?,-15%
Cc1cc(C)c(NC(=O)C(C)Sc2nnc(-c3ccco3)n2-c2ccccc2)c(C)c1 (stereo not given),2.0,13%
O=C(/C=C/c1ccc(O)cc1)c1cccs1,?,-21%
COCCN1C(=S)N[C@@H](c2ccccc2)C(C(=O)OC)=C1C,2.8,11%
Cc1ccc(C#CC2C=CC(Oc3ccc4c(c3)OCO4)C(CO)O2)c(C)c1 (stereo not given),-4.1[11.7 µM],29%
COC(=O)[C@@H]1C[C@@H]2CC[C@@H](O)C[C@@H]2N1Cc1ccc(C)s1,-5.4,7%
CC(C)C[C@@H](CC(=O)N[C@@H](CCC(=O)O)CC(=O)O)NC(=O)[C@@H]1CCCC[C@H]1NC(=O)C[C@H](CCCN)NC(=O)C[C@H](Cc1ccccc1)NC(=O)[C@@H]1CCCC[C@H]1N,5.8,-16%
COc1ccc2c(c1)C(=O)[C@@H](OC(=O)Nc1cc(OC)c(OC)c(OC)c1)[C@H](c1ccc(OC)c(Br)c1)O2,-34,-6%
CCOC(=O)c1c(NC(=O)C2=C(C)NC(=S)NC2c2ccc(CC)cc2)sc(C)c1C (stereo not given),7.9,2%
CCCCC/C=C\C/C=C\C/C=C\CCCCCCC(=O)NCCCC(=O)O,-0.5,22%
CC(=O)c1cn(CCCCCCCCCCn2cc(C(C)=O)c(=O)[nH]c2=O)c(=O)[nH]c1=O,3.3,6%
C=CCNC(=O)c1cc2c(=O)n3cc(C)ccc3nc2nc1NCC1CCCO1 (stereo not given),0.9,15%
COc1ccc(C2=NNC(c3cc(Cl)cc4c3OCOC4)C2)c(O)c1 (stereo not given),1.8,9%
CC[C@H](C)[C@H](NC(=O)[C@H](CC(C)C)NC(=O)[C@@H](N)CO)C(=O)NCC(=O)N[C@@H](CCCCN)C(=O)N[C@H](C(=O)O)C(C)C,1.4,-7%
CCCC(=O)NCc1ccncc1,-0.1,19%
O=C(COc1cccc2ccccc12)Nc1cc(S(=O)(=O)N2CCOCC2)ccc1N1CCOCC1,0.4,7%
Cn1c(=O)c2c(SCC(=O)N3CCOCC3)nc(CC(C)(C)C)nc2n(C)c1=O,5.2,10%
COc1ccc(/C=N/c2sc3c(c2C#N)CCN(Cc2ccccc2)C3)c(O)c1,3.9,15%
CCNc1nc(=S)nc(NCc2ccccc2)[nH]1,0.1,6%
CCCCCCCC/C=C\CCCCCCCCCCCC(=O)O,-6.2,-14%
SMILES,Menin MLL FP FL,Sfp PPTase inh
Cc1ccccc1Nc1oc(-c2ccccc2)nc1CCc1ccccc1,-1.2,-18%
Cc1nn(-c2ccccc2)c2sc(C(=O)OCN3C(=O)c4ccccc4C3=O)cc12,4.4,2%
CCCOC(=O)c1ccccc1O,3.6,12%
O=S(=O)(Cc1ccccc1)c1nnnn1C1CCCCC1,-3.2,4%
COc1ccc(OC)c(-c2ccccc2/C=N/NS(=O)(=O)c2ccc(C)cc2)c1,1.5[11.7 µM],-5%
C=CC(C1=CC(=O)C(OC)=CC1=O)c1ccccc1 (stereo not given),5.7,-94%
O=C(CC1Nc2ccccc2NC1=O)c1ccccc1 (stereo not given),?,-18%
C(=C\c1nc(-c2ccccc2)oc1Nc1ccc2ccccc2c1)/c1ccccc1,-1.0,5%
Cc1ccc(C2=NN=C(NC(=O)CSc3nc(C)cc(C)n3)SC2)cc1,-2.4,40µM*
CSCC[C@H](NC(=O)c1ccc(NC[C@@H](N)CS)cc1-c1ccccc1)C(=O)O,1.5,?
COc1ccc(/C=C2\SC(=Nc3ccccc3)NC2=O)cc1,12,-4%
COc1ccc(S(=O)(=O)NC(N)=NCCc2ccc(OC)c(OC)c2)cc1,0.9,3%
COc1cccc(C2=Nn3c(nnc3-c3cccc(OC)c3OC)SC2)c1,-1.1,-5%
C#C[C@]1(O)CC[C@H]2[C@H]3[C@H](CC[C@@]21C)C1=C(CC(=O)CC1)C[C@@H]3C,?,14%
CCOC(=O)c1cc(C(=O)Nc2ccc(S(=O)(=O)Nc3ccc(OC)cc3)cc2)nn1C,0.6,3%
O=C(NCc1ccc(F)cc1)c1cc2sccc2n1Cc1ccc(F)cc1,9.3,-13%
CCCCCCCCCCCCCCCC(=O)OC(C)C,-0.7,22%
CCOC(=O)c1cnc2c(N=Nc3cccc(Cl)c3)c(N)nn2c1N,2.1,9%
COc1ccc2[nH]c(=O)c(CN(Cc3cccs3)C(=S)Nc3ccccc3)cc2c1,-0.5,9%
Nc1ccccc1S(=O)(=O)Nc1cccc2cccnc12,-3.2&-2.2,3%&11%
Nc1c2c(nc3ccc(Br)cc13)N(C1CCCCC1)CC2,-3.4,-28%
CCN1C(=O)[C@H]2[C@H]3[C@H](O)[C@H](O)C/C(=N\OC[C@@H](C)[C@H](OCc4ccccc4)C(C)C)[C@@H]3CC[C@H]2C1=O,0.6,3%
CCOC(=O)COc1cccc2c(=O)n(CC(=O)NCCc3ccc(OC)c(OC)c3)ccc12,6.9,5%
CCCCC/C=C\C/C=C\C/C=C\CC1OC1CCCC(=O)O (stereo not given),2.9,10%&10%
COc1ccccc1/C=N/NC(=O)c1ccc(NC(=O)c2cccc([N+](=O)[O-])c2)cc1,-0.9,16%
Cc1ccc(C)n1-c1ccc(C(=O)NCc2cccnc2)cc1,0.7,11%
CCCCCCC#CC1C=CC(Oc2ccc(C=O)cc2)C(CO)O1 (stereo not given),1.6[11.7 µM],5%
OC1C=C2CCN3Cc4cc5c(cc4C(C1O)C23)OCO5 (stereo not given),-2.1,-5%

# 14 consecutive entries out of the list so far:
SMILES,Menin MLL FP FL,Sfp PPTase inh
CCCOC(=O)c1ccccc1O,3.6,12%
O=S(=O)(Cc1ccccc1)c1nnnn1C1CCCCC1,-3.2,4%
COc1ccc(OC)c(-c2ccccc2/C=N/NS(=O)(=O)c2ccc(C)cc2)c1,1.5[11.7 µM],-5%
C=CC(C1=CC(=O)C(OC)=CC1=O)c1ccccc1 (stereo not given),5.7,-94%
O=C(CC1Nc2ccccc2NC1=O)c1ccccc1 (stereo not given),?,-18%
C(=C\c1nc(-c2ccccc2)oc1Nc1ccc2ccccc2c1)/c1ccccc1,-1.0,5%
Cc1ccc(C2=NN=C(NC(=O)CSc3nc(C)cc(C)n3)SC2)cc1,-2.4,40µM*
CSCC[C@H](NC(=O)c1ccc(NC[C@@H](N)CS)cc1-c1ccccc1)C(=O)O,1.5,?
COc1ccc(/C=C2\SC(=Nc3ccccc3)NC2=O)cc1,12,-4%
COc1ccc(S(=O)(=O)NC(N)=NCCc2ccc(OC)c(OC)c2)cc1,0.9,3%
COc1cccc(C2=Nn3c(nnc3-c3cccc(OC)c3OC)SC2)c1,-1.1,-5%
C#C[C@]1(O)CC[C@H]2[C@H]3[C@H](CC[C@@]21C)C1=C(CC(=O)CC1)C[C@@H]3C,?,14%
CCOC(=O)c1cc(C(=O)Nc2ccc(S(=O)(=O)Nc3ccc(OC)cc3)cc2)nn1C,0.6,3%
O=C(NCc1ccc(F)cc1)c1cc2sccc2n1Cc1ccc(F)cc1,9.3,-13%

# An excerpt; count on the stated rates, not on these rows.
